Yeast UUG start: yeast start codon fidelity modulation | S. cerevisiae UUG-firefly luciferase reporter, luminescence/redox ratio | activity score, % at 18.7 µM | actives 0.13% (n = 350,000);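 active means replicate mean at a twofold rise or more, about +100% in these data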;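 further: firefly luciferase made from a UUG start codon reports start codon fidelity; reporter light over untreated wells divided by growth signal over untreated wells; some hits fall short of that in this replicate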
MT1-MMP act inh: MT1-MMP (human) activation inhibition | AID 651647 | P50281 | GFP/RFP ratio change, % at 20 µM | HT1080 RFP-PRO-GFP cells, GFP/RFP ratio fluorescence, overnight; percent of plate control window, DMSO zero | actives 0.061% (n = 360,000);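 active means GFP/RFP ratio change of at least 30% with cell ATP level not reduced by more than half and red fluorescence within 50% of control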; further: strong numbers were not always called active
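Assay system: HT1080 cells carrying an RFP-PRO-GFP reporter | Dosing: Single dose of 20 µM compound, 1% DMSO final | Incubation: Cells overnight before dosing, compound overnight, 37 °C, 5% CO2 | Evaluation: GFP/RFP fluorescence ratio | Control set: DMSO and RFP-L50D-GFP cell wells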
PABP FP inh: PABP-poly(A) binding inhibition; PABP-poly(A) RNA binding, fluorescence polarization; actives 1% (n = 290,000); P11940; inhibition, % at 35 µM;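 active means 50% or more with normal probe brightness, or confirmed in later tests; about a fifth of its hits are not listed in these tables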;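 further: calls also rest on retests at 20 µM and on dose response follow-up; controls were probe without protein and protein plus probe with vehicle; some compounds called inactive have numbers as strong as hits; many hits fall short of the cut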
Target sequence (P11940 whole entry, looked up): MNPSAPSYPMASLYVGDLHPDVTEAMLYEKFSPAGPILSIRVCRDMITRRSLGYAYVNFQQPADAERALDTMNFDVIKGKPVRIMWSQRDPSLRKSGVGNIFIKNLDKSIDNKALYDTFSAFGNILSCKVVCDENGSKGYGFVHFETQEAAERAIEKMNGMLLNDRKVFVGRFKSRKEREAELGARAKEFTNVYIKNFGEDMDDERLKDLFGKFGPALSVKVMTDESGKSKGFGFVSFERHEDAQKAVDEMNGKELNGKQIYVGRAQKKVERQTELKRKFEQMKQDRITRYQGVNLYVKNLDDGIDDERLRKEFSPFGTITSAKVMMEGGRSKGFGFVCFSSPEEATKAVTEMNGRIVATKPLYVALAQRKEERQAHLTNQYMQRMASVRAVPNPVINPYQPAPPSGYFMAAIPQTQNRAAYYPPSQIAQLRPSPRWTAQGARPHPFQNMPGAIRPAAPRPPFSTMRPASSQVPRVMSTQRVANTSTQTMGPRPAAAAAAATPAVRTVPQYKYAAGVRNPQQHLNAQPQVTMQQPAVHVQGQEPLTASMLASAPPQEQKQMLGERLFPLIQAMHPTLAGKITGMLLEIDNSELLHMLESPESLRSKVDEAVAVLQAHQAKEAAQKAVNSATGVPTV
Env fusion inh: inhibitors of HIV Env-mediated cell fusion. actives 1.1% (n = 360,000). HeLa-JRFL Env/CEM21 cell fusion, luciferase. inhibition, % at 12.3 µM;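 active means mean replicate inhibition score of at least 50 and every replicate individually at or above 50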;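 further: 0% = plate neutral controls and 100% = maraviroc near 300 nM; one replicate is shown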
CSC inhib: blocks cancer stem cells; AID 2717; cancer stem cell-like cells viability, luminescence; actives 1.1% (n = 300,000); inhibition, % at 7.5 µM;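 active means mean at 75% or more and at least half the replicates too; tested in HMLE shEcad cells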;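 further: 0% = median of negative and 100% = median of positive control wells; the first replicate is given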
eIF4H FP inh: inhibitors of RNA binding by human eIF4H. Q15056. inhibition, % at 35 µM. eIF4H fluorescence polarization binding assay. actives 0.94% (n = 290,000);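 active means 50% or more with normal probe brightness, or confirmed in later tests; about a fifth of its hits are not listed in these tables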;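 further: calls also rest on retests at 20 µM and on dose response follow-up; 0% = protein and probe with vehicle and 100% = probe without protein; strong numbers were not always called active; many hits fall short of the cut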
Rce1 inhib: inhibitors of yeast Ras-converting enzyme; Q03530; yeast membranes, quenched prenylated peptide cleavage fluorescence; calls only; actives 0.27% (n = 290,000); AID 2563;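 active means fall in fluorescence gain of 50% or more versus controls, with final raw signal at or below 3038400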;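 further: plate controls were neutral control wells for no effect and wells lacking membranes for full effect; tested at 10 µM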
MT1-MMP act inh RFP: recorded beside MT1-MMP act inh, whose call it bears; RFP signal change, %; measured here: RFP expression control read;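 0 = vehicle wells; hits needed this value within 50% of zero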
The depositor's hits bear a star; i = inactive; · = no result given; & = joins results of further samples; [ ] = remark or other dose.

Second line of a record – Yeast UUG start | MT1-MMP act inh | MT1-MMP act inh RFP | PABP FP inh | Env fusion inh | CSC inhib | eIF4H FP inh | Rce1 inhib
- CCCCC(=O)Nc1ccc(C(=O)NNC(=O)c2ccc(C)c(Br)c2)cc1
    -14.4 | 1.7 | -0.6 | -4.9 | -1.8 | · | 2.7 | i
- Cc1ccc(-n2nc3c(=O)n(CC(=O)NCCc4cccs4)nc(C)c3c2C)cc1
    -18.3 | 4.5 | -20.7 | -3.7 | 12.2 | 1.0 | 2.4 | i
- O=C(CN1C(=O)NC2(CCCCCCC2)C1=O)Nc1ccc(Br)cc1
    · | 4.2 | 1.8 | · | -11.4 | 24.3 | · | ·
- CC(=O)Nc1nc(-c2ccc3c(c2)CC(C)N3C(=O)C2CC2)c(C)s1 (stereo unspecified)
    -21.7 | -0.4 | -4.0 | 1.0 | 58.6* | -3.4 | 0.4 | i
- O=S(=O)(NNc1ncc(C(F)(F)F)cc1Cl)c1ccc(F)cc1F
    -1.1 | -2.1 | 6.2 | · | · | 14.0 | · | ·
- C=CCOc1cccc(C2/C(=C(/O)c3ccc(C)cc3)C(=O)C(=O)N2CCN2CCOCC2)c1 (stereo unspecified)
    -12.6 | 0.3 | 4.7 | 6.2 | · | 5.4 | -1.9 | i
- CCC(=O)N1CCc2cc(S(=O)(=O)NCCN3CCCCC3CC)ccc21 (stereo unspecified)
    4.1 | -8.8 | 3.6 | -9.3 | -14.0 | -5.0 | -3.3 | i
- CC[C@]12c3[nH]c4cc(-c5ccco5)ccc4c3CCN1C(=O)[C@@H](CC(=O)NCCCOC)C[C@@H]2C(=O)N1CCN(C(=O)C2CC2)CC1
    -14.9 | -3.6 | 2.1 | · | -6.8 | · | · | ·
- Cc1ccc(C(=O)NCC(=O)Nc2ccc3c(c2)CCC3)cc1
    -24.8 | -6.7 | -1.8 | · | -12.1 | -9.4 | · | ·
- Nc1ccncc1N
    2.9 | 1.1 | 2.2 | · | 1.3 | -7.1 | · | i

Additional records follow:
Second line of a record – Yeast UUG start | MT1-MMP act inh | MT1-MMP act inh RFP | PABP FP inh | Env fusion inh | CSC inhib | eIF4H FP inh | Rce1 inhib
- Nc1ccc2[nH]c(=S)sc2c1
    -14.1 | -3.7 | 0.3 | · | 1.6 | · | · | ·
- CN(C[C@H](Cc1ccccc1)N(C[C@H](Cc1ccccc1)N(CCC(C)(C)C)N=O)N=O)N=O
    -13.6 | -7.0 | -13.6 | -3.0 | 61.9* | 3.3 | -2.3 | i
- CN(Cc1ccccc1)C(=O)CN1C(=O)NC2(CCCC2)C1=O
    -12.5 | 1.4 | 3.8 | · | -0.7 | · | · | ·
- Cc1occc1C(=O)NNC(=O)Nc1ccc(F)cc1F
    -3.7 | -3.3 | 7.5 | -7.0 | -0.1 | 2.7 | -1.6 | i
- COc1ccc(N(CC(=O)NCc2ccc(F)cc2)S(=O)(=O)c2c(C)noc2C)cc1
    -13.7 | 0.4 | -1.2 | 8.1 | 4.7 | -5.5 | -1.6 | i
- O=Cc1ccccc1-n1cccn1
    · | 1.9 | 5.2 | 38.5 | 10.3 | -8.2 | -8.6 | i
- Cc1csc(=O)n1CCC(=O)OCC(=O)Nc1ccc(F)c(F)c1F
    -8.5 | -3.1 | 0.2 | · | -3.2 | 0.8 | · | i
- O=C(CCC(=O)c1cccs1)Nc1ccccc1F
    -11.6 | -0.2 | -8.2 | -6.0 | · | -12.1 | -8.3 | i
- CCCCN1C(=O)C(C)=C(C)C1OCCc1ccc(OC)c(OC)c1 (stereo unspecified)
    -2.2 | 0.8 | -2.8 | 6.0 | -3.1 | 2.1 | 1.1 | i
- Cc1ccc(C(=O)Nc2nc3ccc(S(C)(=O)=O)cc3s2)o1
    -7.9 | 3.1 | 2.1 | 6.0 | -82.6 | 31.7 | 3.2 | ·

Gathered by group: the compounds so far containing a furan ring, fused or not.
Second line of a record – Yeast UUG start | MT1-MMP act inh | MT1-MMP act inh RFP | PABP FP inh | Env fusion inh | CSC inhib | eIF4H FP inh | Rce1 inhib
- CC[C@]12c3[nH]c4cc(-c5ccco5)ccc4c3CCN1C(=O)[C@@H](CC(=O)NCCCOC)C[C@@H]2C(=O)N1CCN(C(=O)C2CC2)CC1
    -14.9 | -3.6 | 2.1 | · | -6.8 | · | · | ·
- Cc1occc1C(=O)NNC(=O)Nc1ccc(F)cc1F
    -3.7 | -3.3 | 7.5 | -7.0 | -0.1 | 2.7 | -1.6 | i
- Cc1ccc(C(=O)Nc2nc3ccc(S(C)(=O)=O)cc3s2)o1
    -7.9 | 3.1 | 2.1 | 6.0 | -82.6 | 31.7 | 3.2 | ·

More entries follow.
Second line of a record – Yeast UUG start | MT1-MMP act inh | MT1-MMP act inh RFP | PABP FP inh | Env fusion inh | CSC inhib | eIF4H FP inh | Rce1 inhib
- C/C(Cc1ccccc1)=N\NC(=O)CNC(=O)c1cccc(F)c1
    -16.6 | 0.1 | 0.8 | 3.9 | 4.2 | -24.0 | -11.5 | i
- CCOP(=O)(OCC)c1nc(-c2ccc(Cl)cc2Cl)oc1N1CCCCC1
    · | -4.8 | -6.1 | -1.0 | 22.3 | 19.9 | -12.7 | i
- CC(C)NC(=O)c1cc(C2CCCCN2S(=O)(=O)c2ccc(F)cc2F)on1 (stereo unspecified)
    -6.5 | 2.6 | 0.8 | · | 0.7 | · | · | ·
- Nc1ccccc1Sc1nc2ccccc2[nH]1
    · | -3.7 | -4.4 | 3.9 | -7.7 | · | 9.0 | i
- CC[C@@]1(C(=O)OC)N[C@H](CN(C)C(=O)COC)[C@@H]2C(=O)N(C)C(=O)[C@@H]21
    8.4 | -0.5 | 1.0 | · | -7.8 | · | · | ·
- NC(=O)c1ccc(NC(=O)CCC(=O)N2CCN(S(=O)(=O)c3ccc(Cl)cc3)CC2)cc1
    · | 1.9 | 4.8 | -2.9 | 5.0 | 8.8 | 2.5 | i
- Cc1cnc(C(=O)N2CCCC(C(=O)c3cccc(OC(C)C)c3)C2)cn1 (stereo unspecified)
    · | 0.3 | -0.6 | 7.8 | -19.2 | -1.1 | -1.1 | i
- CCn1cc(C(=O)O)c(=O)c2cnc(N3CCN(C(=S)Nc4ccc(F)cc4)CC3)nc21
    · | · | · | 8.0 | -3.4 | -0.5 | 0.2 | i
- Cc1cc(=O)oc2cc(OCCSCCN3CCOCC3)ccc12
    -17.7 | 3.4 | 4.4 | 4.0 | · | -8.2 | -2.0 | i
- COc1ccccc1C(NC(=O)C1CCN(CCOc2ccccc2)CC1)c1ccccn1 (stereo unspecified)
    0.0 | 0.0 | -1.7 | · | -21.9 | · | · | ·

Carrying on.
SMILES	Yeast UUG start	MT1-MMP act inh	MT1-MMP act inh RFP	PABP FP inh	Env fusion inh	CSC inhib	eIF4H FP inh	Rce1 inhib
CCn1c(N)c(C(=O)N2CCOCC2)sc1=S	-17.6	2.5	-3.4	1.7	·	-6.6	11.5	i
COC(=O)[C@H]1C[C@@H]1[C@H](NC(=O)c1ccccc1)c1ccccc1	-5.0	5.5	4.4	9.9	-55.0	3.8	-0.8	i
Cc1ccc(CN2CCNC(=O)C2CC(=O)NCCCn2nnc3ccccc32)cc1 (stereo unspecified)	-17.5	3.2	7.5	·	-7.1	·	·	·
O=C(CSc1nnc(-c2ccccc2)n1Cc1ccco1)Nc1ccc2c(c1)OCCO2	-16.7	1.5	5.0	-4.9	-46.5	-8.0	2.5	i
CN(CCC(=O)c1ccccc1)CCC(=O)c1ccccc1	-19.0	2.6	2.4	0.1	-9.9	5.3	1.1	i
COc1ccc(N2CCN(C(c3ccccc3)c3sc4nc(C)nn4c3O)CC2)cc1 (stereo unspecified)	-17.6	1.2	-1.8	6.5	-5.6	21.1	-4.9	i
C=CCNc1nc(Cl)nc(Nc2ccccc2)n1	-9.6	2.1	-3.4	-9.9	-13.2	6.3	-1.0	i
CCCOC(=O)C1=C(C)NC(=O)NC1c1ccc(Br)s1 (stereo unspecified)	·	-7.8	-7.4	-5.0	9.5	5.9	-7.4	i
CN1CCN(C(=O)N2c3ccccc3C=Cc3ccccc32)CC1	-9.0	-11.6	-4.4	1.2	·	-4.2	3.3	i
O=c1oc2ccccc2n1CSC1=NCCS1	-30.2	3.1	-7.7	10.4	·	13.2	-5.3	i
COc1ccc(CNCCNC(=O)c2cccs2)cc1OC	·	3.1	2.6	-1.1	9.4	-4.5	1.7	i
Cc1cc(C(=O)COC(=O)C2=NNC(=O)CC2)c(C)n1CCc1ccccc1	3.6	-2.2	-0.3	-0.4	14.5	-0.1	7.8	i
COCCn1nnnc1CN1C2CCCC1CC(NC(C)=O)C2 (stereo unspecified)	·	-3.0	-1.8	-1.7	-38.2	-2.3	1.1	i
C=CCOC(=O)C1=C[C@@H](c2ccc3c(c2)OCO3)C[C@@H](OCc2ccc(CO)cc2)O1	11.4&-5.3	-5.5	-2.3	5.6	-4.9[16.7 µM]	0.7	1.9	i
CCOc1ccc2nc(SCC(=O)NCc3ccc(S(N)(=O)=O)cc3)sc2c1	-25.2	4.5	-5.6	5.1	6.9	-13.6	37.4	i
Cn1ncc2c(O/N=C(\N)c3ccc(C(C)(C)C)cc3)ncnc21	22.6	-34.2	-34.4	16.3	·	108.0*	0.4	i
Cn1ncc2c(Nc3ccc(Cl)cc3)ncnc21	-23.1	-4.8	-1.2	12.6	0.7	-2.8	-14.5	i
O=C(N[C@@H](Cc1ccccc1)C(=O)N1CCC2(CC1)NCCc1[nH]cnc12)c1cccc(Br)c1	-17.5	-3.4	4.5	·	0.2	21.8	·	i
O=C(C[n+]1cc(-c2ccc(Br)cc2)n2c1CCCCC2)c1ccccc1	·	-1.1	-5.2	-4.4	8.5	6.2	-5.2	i
CO[C@H]1[C@@H]2C=CO[C@@H](O[C@H]3O[C@@H](CO)[C@H](O)[C@@H](O)[C@@H]3O)[C@@H]2[C@@]2(CO)O[C@@H]12	-8.3	4.4	6.6	·	-15.3	-16.5	·	·
O=C(Nc1ccccc1)C1CCOC1=O (stereo unspecified)	13.6	3.0	2.5	·	-5.3	4.9	·	i
O=C(COC(=O)c1ccc(S(=O)(=O)NCc2ccco2)cc1)NCCC1=CCCCC1	-7.3	-0.2	2.6	8.3	21.8	-15.9	6.0	i
COc1cc(S(=O)(=O)N2CCN3CCCC3C2)ccc1-n1cnnn1 (stereo unspecified)	-15.4	-0.6	3.4	-1.6	·	-9.1	-2.1	i
COc1ccc(-c2csc(NC(=O)CCn3cnc4ccccc4c3=O)n2)cc1OC	-16.5	9.8	-3.9	-2.1	·	-3.4	-6.6	i
CC(C)OCCCNC(=O)C1CC(=O)N(CCc2ccc(F)cc2)C1 (stereo unspecified)	-5.4	-1.2	0.3	-5.2	-8.1	-9.0	1.1	i
O=C(O)CCn1c(C2CCCCC2)nc2ccccc21	4.0	-0.3	2.6	15.8	-4.5	-9.1	8.1	i
CCn1c(SCC(=O)Nc2ccc(OC)c(OC)c2)nnc1-c1cnccn1	-13.9	-0.8	3.4	-4.2	6.5	2.9	-2.5	i
COc1cc(/C=C/C(=O)Nc2nnc(C(C)(C)C)s2)cc(OC)c1OC	·	8.1	1.1	-5.7	7.6	3.2	-12.7	i
Cc1ccc2c(c1)c1c3n2CCN(CC#N)C3CCC1 (stereo unspecified)	-14.6	-4.5	-0.9	-5.0	0.6	-0.4	-19.4	·
CN(C(=O)c1ccc(S(=O)(=O)c2cccc(Cl)c2)c([N+](=O)[O-])c1)C1CCCCC1	7.3	-16.4	-38.5	-5.4	59.1*	47.2	-6.4	i
CNc1ccc(C(=O)OCC(=O)NCc2ccc3c(c2)OCO3)cc1[N+](=O)[O-]	-15.8	-0.4	1.9	·	-14.3	-7.6	·	·
COC(=O)[C@@]1(Cc2ccc(F)cc2)[C@H]2c3cc(C(=O)N(C)C)n(CCc4ccc(OC)c(Br)c4)c3C[C@H]2CN1C(=O)c1ccccc1	-4.3	-26.6	-22.7	6.4	25.5	21.3	-6.9	i
COc1cccc(NC(=O)CN(C)CC(=O)Nc2ccc3c(c2)CCC3)c1	0.7	-4.4	-1.8	1.6	10.1	·	9.5	i
